PINK1 modulator: changes PINK1 expression. 0.2% of 410,000 active. PINK1 immunofluorescence, high-content cytometry, 24 h. Potency, µM (titrated, usually from 76.6 µM), for the others: at the top dose activation (PINK1 increase), hits mostly activators. AID 624263; active = well fitted activation curve with a large enough effect; inconclusive = small, poorly fitted or top-dose-only effect; inactive = flat fitted curve, though single readings scatter; cell line not stated here;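 also: % of control where 0% means no effect; nearly all actives have a fitted effect of over 65% in size; a mitochondrial uncoupler was the plate control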
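PINK1 protein, normally rapidly degraded, was detected by immunofluorescence after 24 hour compound treatment of a stable cell line. Titration data (5 concentrations) came from laser-scanning cytometry, with CCCP-treated wells as controls.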
Sfp inh: Sfp phosphopantetheinyl transferase inhibition; 3.5% of 310,000 active; Potency, µM, inactives show max response, negative = inhibition, actives largely listed as inhibitors; Biochemical Sfp PPTase activity, qHTS; active = well fitted inhibition curve with a large enough effect; inconclusive = small, poorly fitted or top-dose-only effect, or another doubt; inactive = no such curve, though single readings can be large or run the other way;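 also: the enzyme is Sfp with the accession as filed and its product quenches rhodamine fluorescence; 0% = enzyme reaction without inhibitor and -100% = no enzyme wells; top concentration of the series not given in the record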
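After 15 min at room temperature with compound, 15 nM Sfp received 5 uM rhodamine-CoA plus 12.5 uM BHQ-2-ybbR (50 mM Hepes pH 7.6, 10 mM MgCl2). Rate came from the fluorescence difference over 30 min, ex 525/em 598 nm.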
The depositor's hits bear a star; ? = inconclusive; . = no result given; & = joins results of further samples; [ ] = another dose, or the depositor's remark. Potency is read from the fitted curve at half-maximal effect.

SMILES	PINK1 modulator	Sfp inh
COc1ccc2c(c1)c(=O)c(S(=O)(=O)c1ccc(Cl)cc1)cn2C	0.9%	.
O=C(CC1(O)C(=O)N(Cc2ccccc2)c2ccc(Br)cc21)c1ccccc1 (stereo unspecified)	9.3%	.
Cc1ccc(CN(Cc2ccco2)c2cnc(S(C)(=O)=O)nc2C(=O)Nc2ccc(Br)cc2)o1	-1.6%	.
Cc1ccccc1-c1cc(-n2ccnc2)ncn1	-0.4%	4%
Cn1cccc1C(=O)N1CCC2(CCCN(c3ncccn3)C2)CC1	0.3%	11%
O=S(=O)(c1ccccc1)N1CCC[C@@]2(CCN(Cc3nccs3)C2)C1	0.2%	2%
Cc1cnc(CNc2ccnc(-c3ccccc3Cl)n2)cn1	0.8%	-8%
CC(=O)N1CCC[C@@]2(CCN(C(c3ccccc3)c3ccccc3)C2)C1	-1.0%	18%
COc1ccc(CNc2ncnc3ccc(-c4ccc5c(c4)OCO5)cc23)c(OC)c1	1.6%	5%
CS(=O)(=O)N1CCC[C@@]2(CCN(Cc3ccccc3)C2)C1	0.7%	-4%
O=C(c1ccncc1)N1CCC2(CCCN(c3cccc(-c4ccccc4)c3)C2)CC1	2.0%	-28%
O=C(c1csnn1)N1CCC2(CCCN(c3ccncc3)C2)CC1	-0.6%	13%
O=c1c(CCc2ccccc2)nc2cncnc2n1Cc1ccc(F)cc1	-0.5%	-11%
O=c1c(-c2cc(F)cc(F)c2)nc2cncnc2n1-c1ccccc1	-0.2%	12%
c1ccc2c(N3CCNCC3)nc(-c3ccc4c(c3)OCO4)nc2c1	-0.8%	-12%
COc1cccc(Nc2ncc3nc(-c4ccc(Cl)cc4)c(=O)n(CCC#N)c3n2)c1	?	24%
Cc1ccccc1-c1nc(NCCN2CCOCC2)c2ccccc2n1	0.6%	?
CS(=O)(=O)Nc1cccc(-c2ccc3ncnc(NCc4cccnc4)c3c2)c1	3.0%	24%
Cn1cc(-c2nc3cncnc3n(-c3ccccc3)c2=O)c2ccccc21	-1.3%	-8%
O=C(c1ccco1)N1CCC2(CC1)CN(c1ncccn1)C2	-0.9%	5%
COc1ccc(NC(=O)N2CC3(CCN(C(=O)c4ccc(OC)cc4)CC3)C2)cc1	-0.5%	2%
COc1ccc(-n2c(=O)c(C)nc3cnc(N(C)C)nc32)cc1	0.7%	29%
CC(=O)OCCC(C)CCC=C(C)C (stereo unspecified)	0.2%	12%
c1nc(NC2CC2)c2cc(-c3ccoc3)ccc2n1	-0.9%	?
COc1cccc(Nc2ncc3nc(CCc4ccccc4)c(=O)n(C)c3n2)c1	?	12%

Overlap with the part before: four compounds; new compounds follow.
SMILES	PINK1 modulator	Sfp inh
COc1ccc(-n2c(=O)c(C)nc3cnc(N(C)C)nc32)cc1	0.7%	29%
CC(=O)OCCC(C)CCC=C(C)C (stereo unspecified)	0.2%	12%
c1nc(NC2CC2)c2cc(-c3ccoc3)ccc2n1	-0.9%	?
COc1cccc(Nc2ncc3nc(CCc4ccccc4)c(=O)n(C)c3n2)c1	?	12%
COc1ccc(Oc2ncc3nc(-c4ccc(F)cc4)c(=O)n(CCC#N)c3n2)cc1	1.0%	2%
Nc1nc(=O)n(C2OC(CO)C(O)C2O)cc1Cl (stereo unspecified)	0.1%	-29%
CC(=O)Oc1cc2c(c(C)c1OC(C)=O)CC=C1[C@]3(C)CC[C@]4(C)CC[C@@](C)(C(=O)O)CC4[C@]3(C)CC[C@]12C (stereo partly specified)	-0.3%	-3%
COc1ccc(Oc2ncc3ncc(=O)n(Cc4cccc(OC)c4)c3n2)cc1	11%	-1%
Nc1nc(N)c(-c2ccccc2)s1	-0.4%	?
O=C(c1csnn1)N1CCC2(CCCN(Cc3cc(C(F)(F)F)cc(C(F)(F)F)c3)C2)CC1	-0.8%	16%
N#Cc1cccc(NC(=O)N2CCC3(CC2)CCN(C(=O)c2cnccn2)CC3)c1	-0.2%	24%
O=C(c1cccc(F)c1)N1CCC2(CCN(Cc3ccncc3)CC2)CC1	1.1%	-8%
Nc1nc2c([nH]c(=O)n2C2OC(CO)C(O)C2O)c(=O)[nH]1 (stereo unspecified)	-0.7%	?
O=C(c1csnn1)N1CCC2(CCCN(c3ccc(-c4ccccc4)cc3)C2)CC1	0.9%	-9%
COCC(=O)N1CCC[C@@]2(CCN(c3ccncc3)C2)C1	-0.5%	21%
O=C(c1cccc(F)c1)N1CCC2(CC1)CN(Cc1ccccc1)C2	0.7%	-7%
CCNc1ncc2nc(CCc3ccccc3)c(=O)n(C[C@H]3CCCO3)c2n1	3.4%	0%
COc1ccc(-c2nc3cnc(Oc4ccccc4)nc3n(C3CC3)c2=O)cc1	-0.4%	15%
COc1ccc(-c2nc3cnc(N4CCOCC4)nc3n(Cc3cccs3)c2=O)cc1	8.5%	9%
CS(=O)(=O)Nc1cccc(-c2nc(Nc3ccncc3)c3ccccc3n2)c1	1.3%	9%
c1ccc(CNc2ncnc3ccc(-c4cccnc4)cc23)cc1	-0.6%	27%
O=c1c(-c2ccc(F)c(F)c2)nc2cncnc2n1Cc1ccc(F)cc1	-0.1%	-22%
O=C(c1csnn1)N1CCC2(CCN(Cc3nccs3)CC2)CC1	1.0%	9%
CN1CCN(c2ncc3ncc(=O)n(CCC#N)c3n2)CC1	-0.4%	19%
COc1ccc(CNc2cc(-c3cccnc3)ncn2)c(OC)c1	-0.1%	31%[activator]
COCCNc1ccnc(-c2cccc(NS(C)(=O)=O)c2)n1	0.3%	13%
CC(C)=CC1C(C(=O)O)C1(C)C (stereo unspecified)	1.8%	9%
CN(C)C(=O)c1ccc(-c2cncnc2Nc2ccccc2)cc1	1.7%	?
COc1cccc(Cn2c(=O)cnc3cnc(N4CCN(C)CC4)nc32)c1	0.2%	5%

Next section
SMILES	PINK1 modulator	Sfp inh
COc1cccc(-c2cncnc2NCc2ccc(OC)cc2OC)c1	6.8%	-11%
Cc1noc(C)c1C(=O)N1CCC[C@@]2(CCN(C(=O)Nc3cccc(C#N)c3)C2)C1	3.6%	16%
CS(=O)(=O)N1CCC2(CCN(C(c3ccccc3)c3ccccc3)CC2)CC1	-0.2%	14%
COc1cccc(Cn2c(=O)c(C)nc3cnc(OC)nc32)c1	-0.6%	22%
O=C(c1cnccn1)N1CCC2(CCCN(Cc3ccccc3)C2)CC1	0.5%	14%
COc1ccc(Oc2ncc3ncc(=O)n(C4CC4)c3n2)cc1	-0.4%	16%
Cc1nc2cnc(N3CCOCC3)nc2n(Cc2ccc(F)cc2)c1=O	0.0%	24%
Cc1cccc(CNc2ccnc(-c3ccccc3CN(C)C)n2)c1	8.6%	-3%
O=C(Nc1cccc(F)c1)N1CCCC2(CCN(C(=O)c3csnn3)CC2)C1	-0.7%	0%
CCNc1ncc2nc(-c3cc(F)cc(F)c3)c(=O)n(C[C@H]3CCCO3)c2n1	4.8%	11%
Cc1cc(O)cc(O)c1C(=O)O	-1.5%	2%
C=CC(N)CCC(=O)O (stereo unspecified)	-0.2%	14%&25%
COc1cccc(Nc2ncc3nc(-c4ccc(Cl)cc4)c(=O)n(C4CC4)c3n2)c1	1.7%	2%
c1ccc2c(-n3ccnc3)nc(-c3ccoc3)nc2c1	-1.8%	-8%
COc1ccc(-c2cc(=O)c3c(O)c(OC)c(O[C@@H]4OC(COC5OC(C)C(O)C(O)[C@@H]5O)C(O)C(O)C4O)cc3o2)cc1 (stereo partly specified)	-0.2%	-21%
CN(C)C(=O)c1ccc(-c2nc(-n3ccnc3)c3ccccc3n2)cc1	-0.2%	-29%
Cn1cc(-c2nc3cnc(OCc4ccccc4)nc3n(CCC#N)c2=O)c2ccccc21	3.7%	1%
COc1cccc(Cn2c(=O)c(-c3cccs3)nc3cnc(N4CCOCC4)nc32)c1	0.7%	0%
COc1ccc2[nH]cc(CCNc3ccnc(-c4ccccc4Cl)n3)c2c1	2.4%	5%
O=c1c(CCc2ccccc2)nc2cnc(N3CCNCC3)nc2n1C1CC1	0.8%	2%
O=C(c1ccncc1)N1CCC[C@@]2(CCN(c3cccc(-c4ccccc4)c3)C2)C1	2.1%	-15%
Cn1cc(-c2nc3cncnc3n(C3CC3)c2=O)c2ccccc21	1.8%	6%
O=C(c1cccc(F)c1)N1CCC[C@@]2(CCN(c3ccccc3)C2)C1	1.1%	-9%
CN1CCCC2(CCN(C(=O)c3cccc(F)c3)CC2)C1	-0.5%	6%
O=C(c1csnn1)N1CCC2(CC1)CCN(C(c1ccccc1)c1ccccc1)CC2	1.3%	4%

(more compounds)
SMILES	PINK1 modulator	Sfp inh
COc1ccccc1CNc1ccnc(-c2ccc(N(C)C)cc2)n1	2.3%	?
COc1ccc(Oc2ncc3nc(C)c(=O)n(Cc4ccc(F)cc4)c3n2)cc1	0.8%	-17%
c1csc(CNc2ccnc(-c3ccoc3)n2)c1	-0.5%	79µM*
COc1cccc(Cn2c(=O)c(-c3cn(C)c4ccccc34)nc3cnc(N4CCOCC4)nc32)c1	-0.6%	12%
COCC(=O)N1CCC2(CCCN(C(=O)Nc3ccc(OC)cc3)C2)CC1	0.1%	20%
COc1ccccc1CN1CC[C@@]2(CCCN(C(C)=O)C2)C1	0.0%	23%
Cc1cnc(CNc2cc(-c3cccc(C#N)c3)ncn2)cn1	-0.2%	-2%
COc1ccccc1CN1CCC2(CC1)CCN(S(=O)(=O)c1ccccc1)CC2	-0.9%	9%
O=c1c(-c2cccc(Cl)c2)nc2cncnc2n1Cc1ccccc1	-0.7%	-10%
COc1ccc(C(=O)N2CCC[C@@]3(CCN(C(=O)Nc4cccc(C#N)c4)C3)C2)cc1	1.7%	22%
COc1ccc(-c2nc3cnc(Nc4cccc(OC)c4)nc3n(CCC#N)c2=O)cc1	45µM*	-4%
CC(=O)N1CCC2(CCCN(C(=O)Nc3cccc(F)c3)C2)CC1	-0.2%	6%
N#Cc1ccc(CN2CCC3(CC2)CCN(C(=O)c2cccc(F)c2)CC3)cc1	-0.3%	14%
NC(=O)c1ncn(C2OC(CO)C(O)C2O)c1N (stereo unspecified)	-0.2%	3%&-14%
COCCn1c(=O)cnc2cnc(Oc3cccc(Cl)c3)nc21	-0.5%	4%
COc1cccc(-c2nccc(NCc3cnc(C)cn3)n2)c1	-0.3%	-6%
O=C(c1cnccn1)N1CCC2(CCCN(Cc3ccncc3)C2)CC1	-0.1%	0%
Cc1nc2cnc(Oc3ccccc3)nc2n(Cc2cccs2)c1=O	0.1%	7%
NCC1OC(n2cnc3c(=O)[nH]c(N)nc32)C(O)C1O (stereo unspecified)	1.6%	5%
COc1ccc(-n2c(=O)c(C)nc3cnc(N4CCOCC4)nc32)cc1	-1.3%	24%
COc1cccc(-c2cncnc2NCc2cnc(C)cn2)c1	8.7%	-19%
Cc1cnc(CNc2nc(-c3ccc4c(c3)OCO4)nc3ccccc23)cn1	0.1%	-16%
CN(Cc1ccco1)c1ncncc1-c1cccc(C#N)c1	0.1%	-12%
O=C(Oc1ccccc1)N1CCC2(CC1)CCN(c1cccc(-c3ccccc3)c1)CC2	0.6%	7%
COc1ccc(-c2nc3cnc(OCc4ccccc4)nc3n(CCC#N)c2=O)cc1	8.6%	21%

Next section (6 carried over from the part before).
SMILES	PINK1 modulator	Sfp inh
COc1ccc(-n2c(=O)c(C)nc3cnc(N4CCOCC4)nc32)cc1	-1.3%	24%
COc1cccc(-c2cncnc2NCc2cnc(C)cn2)c1	8.7%	-19%
Cc1cnc(CNc2nc(-c3ccc4c(c3)OCO4)nc3ccccc23)cn1	0.1%	-16%
CN(Cc1ccco1)c1ncncc1-c1cccc(C#N)c1	0.1%	-12%
O=C(Oc1ccccc1)N1CCC2(CC1)CCN(c1cccc(-c3ccccc3)c1)CC2	0.6%	7%
COc1ccc(-c2nc3cnc(OCc4ccccc4)nc3n(CCC#N)c2=O)cc1	8.6%	21%
COCCn1c(=O)c(-c2ccc(F)cc2)nc2cnc(OC)nc21	-0.2%	8%
CC(C)NC(=O)N1CCC2(CC1)CCN(C(=O)c1cc(C(F)(F)F)cc(C(F)(F)F)c1)CC2	-0.7%	2%
Cc1noc(C)c1-c1ccc2ncnc(Nc3ccccc3)c2c1	0.9%	6%
O=C(Nc1ccccc1)N1CCCC2(CCN(C(=O)c3ccco3)CC2)C1	-0.9%	15%
COc1ccccc1CN1CCC2(CC1)CCN(C(=O)c1c(C)noc1C)CC2	-0.5%	12%
CC1=CC2C(C(C)C)CCC(C)(O)C2CC1 (stereo unspecified)	1.4%	-2%
O=c1[nH]c(Cl)nc2c1ncn2C1OC(CO)C(O)C1O (stereo unspecified)	0.5%	8%
O=c1c(-c2ccccc2)nc2cncnc2n1Cc1ccc(F)cc1	0.0%	-4%
COc1ccccc1CN1CCC2(CC1)CCN(C(=O)c1cccc(F)c1)CC2	-0.4%	24%
COc1ccc(-n2c(=O)c(C)nc3cnc(Oc4ccccc4)nc32)cc1	0.7%	12%
Cc1cnc(CNc2nc(-c3c(C)noc3C)nc3ccccc23)cn1	1.3%	-18%
Cc1ccccc1-c1cc(N(C)Cc2ccco2)ncn1	1.9%	-30%
N#Cc1cccc(NC(=O)N2CC3(CCN(C(=O)c4cnccn4)CC3)C2)c1	1.1%	-4%
FC(F)(F)c1ccccc1-c1nc(NC2CC2)c2ccccc2n1	-0.2%	14%
O=S(=O)(c1ccccc1)N1CCC2(CCN(C(c3ccccc3)c3ccccc3)CC2)CC1	1.3%	18%

Screening results (PubChem BioAssay)

Not all compounds are listed. The share of hits here may be higher or lower than overall.
